Source: PubChem BioAssay (National Center for Advancing Translational Sciences (NCATS))
VDR inhibitor: blocks the human vitamin D receptor; AID 504847; hit rate 0.93% among 400,000; Potency, µM, inactives show max response, negative = inhibition, actives largely listed as inhibitors; VDR-SRC2-3 peptide fluorescence polarization, 2 h; active = well fitted inhibition curve with a large enough effect; inconclusive = small, poorly fitted or top-dose-only effect, or another doubt; inactive = no such curve, though single readings can be large or run the other way; note: series mostly up to about 120 µM
Target sequence (P11473 whole entry, looked up): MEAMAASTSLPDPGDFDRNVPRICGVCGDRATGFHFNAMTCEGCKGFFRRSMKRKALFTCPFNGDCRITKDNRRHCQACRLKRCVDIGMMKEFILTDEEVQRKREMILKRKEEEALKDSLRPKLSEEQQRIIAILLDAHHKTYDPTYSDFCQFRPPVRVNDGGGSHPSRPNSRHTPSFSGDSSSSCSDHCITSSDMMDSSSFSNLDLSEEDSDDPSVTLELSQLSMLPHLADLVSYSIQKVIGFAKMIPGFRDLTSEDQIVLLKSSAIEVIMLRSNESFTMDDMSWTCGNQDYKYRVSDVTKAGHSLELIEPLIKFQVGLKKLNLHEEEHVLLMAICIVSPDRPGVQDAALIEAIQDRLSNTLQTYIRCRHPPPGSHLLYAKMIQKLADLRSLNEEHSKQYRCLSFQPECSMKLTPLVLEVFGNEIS
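FP read-out; VDR + SRC2-3 coactivator peptide; 23 nl compound by pintool; 2 h RT incubation; reagents held at 4 deg C, protected from light.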
* = called active by the depositor; ? = inconclusive; & = joins results of further samples; ! = not active in a repeat; [ ] = another dose, or the depositor's remark. % is set by controls: 0 for no effect and ±100 for the full control effect; potency is the fitted concentration of half-maximal effect.

Structure	VDR inhibitor
Cc1ccc(-n2ccc(=O)c(C(=O)O)n2)cc1	-11%
Cc1cccc(OCCC(=O)NCC(c2ccccc2)N(C)C)c1 (stereo not drawn)	7%
O=C(O)c1cc2cc(Cl)ccc2[nH]1	-4%&-2%&-1%
COc1ccc(/C=C2\SC(=S)N(CCC(=O)Nc3cccc(C(=O)O)c3)C2=O)cc1OC	4%
Cc1ccccc1C(=O)Nc1ccccc1-c1nc(-c2ccccc2)no1	3%
COc1ccc(-c2ccc(CCC(=O)O)n2NC(=O)c2ccc(O)cc2)cc1	7%
CC1CCN(C(=O)C2CCCN2S(=O)(=O)c2ccc(Cl)cc2)CC1 (stereo not drawn)	-9%
O=C(NCc1ccc2c(c1)OCO2)c1nc(Cn2ccc([N+](=O)[O-])n2)no1	-13%
CCOC(=O)c1cnc2c(C#N)c(C)nn2c1C	-7%
Cc1ccc2nc(C)cc(C(=O)OCC(=O)c3ccc(Cl)c([N+](=O)[O-])c3)c2c1	2%
CCOc1cc(C#N)c(NC(=O)c2ccc(OC)c(S(=O)(=O)N3CCCC3)c2)cc1OCC	-18%
CC1Sc2ccc(S(=O)(=O)CCC(=O)N3CCN(c4ccccc4)CC3)cc2NC1=O (stereo not drawn)	-8%
CN(C)c1nc(F)c(F)c(S(=O)(=O)c2ccccc2)c1F	-7%
C[C@H](NC(=O)[C@H]1N2C(=O)c3ccccc3C2SC1(C)C)C(=O)N1CCC[C@H]1C(=O)O (stereo partly drawn)	3%
CN1CCC[C@@H](CC2c3ccccc3Sc3ccccc32)C1	-19%
COCCNC(=O)Cn1cnc2c1c(=O)n(C)c(=O)n2C	5%
CCC(O)CNc1nc(-n2nc(C)cc2C)nc2sc3c(c12)CC(C)(C)OC3 (stereo not drawn)	-10%
Cc1ccc2cc(CN(Cc3ccco3)C(=S)NCC3CCCO3)c(=O)[nH]c2c1C (stereo not drawn)	0%
CC(NC(=O)c1ccccc1)c1nc2ccccc2n1Cc1ccc(Cl)cc1 (stereo not drawn)	7%
COc1ccccc1NC(=O)C1=C(C)Nc2nc(SCc3ccccc3C)nn2C1CC(C)C (stereo not drawn)	36%[activator]
CCOC(=O)/C=C/c1ccc2oc3ccccc3c(=O)c2c1	-11%
O=C(CSc1nnc(CNC(=O)c2ccccc2)o1)NCc1ccc2c(c1)OCO2	0%
Cc1sc2ncnc(N3CCC(C)CC3)c2c1C	-1%
Cc1ccc(S(=O)(=O)NCc2nc(-c3cccc(C)c3)no2)cc1	5%
CCOC(=O)c1c(C)oc2nc(C)nc(NCCc3ccc(OCC)c(OCC)c3)c12	-7%
CCOc1ccc(-c2cccc(NS(=O)(=O)c3c(C)cc(C)cc3C)c2)nn1	15%
CCCOc1ccc(CNC(=O)C2CCCN(c3nc4c(C)cc(C)cc4s3)C2)cc1 (stereo not drawn)	-1%
O=C(NCc1ccc(F)cc1)C(Cc1ccccc1)n1cccc1 (stereo not drawn)	-2%
CCCCN1CC(=O)N2[C@H]3c4cc(Br)ccc4OC[C@@H]3[C@H](C(=O)OCC)[C@]2(C)C1=O	-13%
CC(C)C[C@H]1CNC(=S)N1CC1CCCN1C[C@H](Cc1ccccc1)N1C[C@H](Cc2ccc(O)cc2)N(CC2CCCCCC2)C1=S (stereo partly drawn)	-15%

Entries from the list above containing a thiophene ring, fused or not, in the order listed:
Structure	VDR inhibitor
CCC(O)CNc1nc(-n2nc(C)cc2C)nc2sc3c(c12)CC(C)(C)OC3 (stereo not drawn)	-10%
Cc1sc2ncnc(N3CCC(C)CC3)c2c1C	-1%

More results:
Structure	VDR inhibitor
Fc1ccc(-c2nnc(CN3CCC(c4nc5ccccc5s4)CC3)o2)cc1	8%
O=C(c1ccc2ccccc2c1)C1CCCN(C(=O)c2cccnc2)C1 (stereo not drawn)	3%
CCCCC1=NN(C(=O)c2cocc2C)C(O)(C(F)(F)F)C1 (stereo not drawn)	33%[activator]
O=C(OCc1ccccn1)c1ccc(COc2ccccc2Cl)o1	-6%
CCN(CC)C(=O)CSc1nnc(-c2ccccc2)c(-c2ccccc2)n1	-6%
CCN(CC)c1ccc(NC(=O)c2cccnc2)c(C)c1	13%
NC1=NC[C@H](Cc2ccc(O)cc2)N1CC1CCCCC1	-4%
Cn1nnc(NC(=S)NC(=O)c2cc(Cl)ccc2Cl)n1	-7%
Cc1cc(NC(=O)C(C)SCC(=O)OCc2c(Cl)cccc2Cl)no1 (stereo not drawn)	-14%
C/C(=N\N=C(N)N)c1ccc(Cl)cc1Cl	-15%
COc1ccc(N2CCN(C(=O)COC(=O)c3ccc(C)o3)CC2)cc1	2%
O=S(=O)(NC1CCCCC1)c1ccc(S(=O)(=O)N2CCN3CCCC3C2)cc1 (stereo not drawn)	0%
COc1ccc(CN(C(=O)c2snc(C(N)=O)c2N)C(C(=O)NC2CCCC2)c2cc(OC)ccc2OC)cc1 (stereo not drawn)	-14%
Cc1nc(N)sc1C(=O)N/N=C/c1ccc([N+](=O)[O-])cc1	10%
Cc1ccc(C(=O)N/C(=C/c2ccc(Cl)cc2)C(=O)N2CCOCC2)cc1	-6%
Cc1ccc(-c2nc(NCc3ccco3)c3ccccc3n2)cc1	5%
CCC(=O)NCCc1cc2ccc(C)c(C)c2[nH]c1=O	-6%
CN(CC(=O)NCc1ccccc1)S(=O)(=O)c1ccc2[nH]c3c(c2c1)CCCC3	11%
O=c1cc(OCc2ccccc2)cc[nH]1	8%
O=C1CC(c2cccc(O)c2)Oc2ccccc21 (stereo not drawn)	-1%
Cc1ccc(C)c(NC(=O)CCN2CCN(CCO)CC2)c1	6%
Cn1cc(C(=O)NCc2ccc(F)cc2)cn1	1%
Cc1ccc(SCc2ccc(C(=O)Nc3cccnc3)cc2)cc1	-19%
O=C(Nc1ccc(S(=O)(=O)N2CCOCC2)cc1)c1cccs1	5%
Clc1ccc(OCCn2ccnc2)c2ccccc12	17%
COc1ccc(C[C@H]2CN3C(=NC[C@@H]3C)N2CCNC(=O)CCC2CCCCC2)cc1	13%
CCOC(=O)c1cccc(NC(=S)NC(=O)c2cccnc2)c1	-9%
Cc1csc(=O)n1CCC(=O)OCc1nnc(-c2ccc([N+](=O)[O-])cc2)o1	1%
Cc1cc(C)cc(NC(=O)Cn2nnc(C(=O)NCc3ccco3)c2N)c1	-8%&-9%
COc1cc(C(=O)NCCNC(=O)c2ccco2)cc(OC)c1OC	?

2 compounds picked at random from the list so far, as already listed:
Structure	VDR inhibitor
Cc1ccc(-c2nc(NCc3ccco3)c3ccccc3n2)cc1	5%
CCOC(=O)c1cccc(NC(=S)NC(=O)c2cccnc2)c1	-9%

Additional entries:
Structure	VDR inhibitor
COc1cc2c(cc1OC)CN(CC(=O)NC(=O)NC(C)(C)C)CC2	-10%
CCCc1cc(=O)n2nc(N3CCC(C(=O)N4CCN(c5cccc(OC)c5)CC4)CC3)sc2n1	0%
CCCCc1nn2c(=O)cc(COC(=O)c3ccccc3NC(=O)c3cccs3)nc2s1	4%
Cc1ccc(-c2ccc(CCC(=O)O)n2NC(=O)c2ccc([N+](=O)[O-])cc2)cc1	14%
O=C(NCC1CCCCC1)C1(CC2CC(c3cccc(Br)c3)=NO2)CCNCC1 (stereo not drawn)	-23%
Cc1cc(N2CCCC(C(=O)Nc3cccc4ccccc34)C2)n2ncnc2n1 (stereo not drawn)	-9%
Cc1ccc(C)c(N(C(=O)c2csnn2)C(C(=O)NC2CCCC2)c2ccncc2)c1 (stereo not drawn)	1%
O=C(O)CSc1nc(SCc2ccccc2Cl)nc2c1CCCC2	6%
CCOC(=O)c1ccccc1NC(=O)COC(=O)CSC(C)C(=O)Nc1cc(C)on1 (stereo not drawn)	-6%
O=C(O)CCCCCN1C(=O)C2CCCCC2C1=O (stereo not drawn)	-17%
Cc1ccc2nc(SCC(=O)Nc3ccc(Cl)cc3)nc(=O)n2c1	-18%
Cc1ccc(C)n1/N=C1/NC(=O)CS1	20%
CCCC1(c2ccccc2)NC(=O)N(CC(=O)Nc2cc(C)on2)C1=O (stereo not drawn)	-1%
CCC(C(=O)Nc1ccc(C(C)=O)cc1)n1c(C)c2cnn(-c3ccccc3)c(=O)c2c1C (stereo not drawn)	11%
CCCCCOC(=O)c1ccc(Nc2nc(C(=O)OCC)nc3ccccc23)cc1	9%
CCOC(=O)c1ccc(NC(=O)CCn2ccc(C)n2)cc1	4%
Cn1c(=O)c(=O)n(C)c2cc(N3CCOCC3)c(NS(=O)(=O)c3ccc(Br)cc3)cc21	-3%
Cc1ccc2cc(CN(C(=O)C3CCCO3)C3CCCCC3)c(=O)[nH]c2c1 (stereo not drawn)	-16%
C=CCn1c(SCc2cc(=O)n3ccsc3n2)nc2scc(C3CC3)c2c1=O	-4%
O=c1[nH]c2ccc(Cl)cc2c(-c2ccccc2)c1N1CCOCC1	-6%
COc1cccc(C(=O)NNc2nc(C)cc(C)n2)c1	-4%
C#CCOc1ccc(/C=C2/C(=O)N(c3cccc(C(=O)O)c3)N=C2C)cc1OC	?
Cc1ccc2c(CC(=O)O)coc2c1C	-11%
CC12C(=O)N(c3ccccc3)C(=O)C1C(c1ccccc1)N1CCCN12 (stereo not drawn)	-1%
COc1ccc(C(=O)Nc2cc(C)nn2-c2nc3ccccc3[nH]2)c(OC)c1	-21%
COc1ccc2c(c1)CC(C(=O)Nc1ccc(Br)c(C)c1)CO2 (stereo not drawn)	11%
Cc1nn(CC(=O)N(C)C)c(=O)c2ccccc12	-10%
COc1ccc(Cl)cc1C(=O)NNC(=O)C1COc2ccccc2O1 (stereo not drawn)	-22%
COC(=O)CSc1nc2sc3c(c2c(=O)n1-c1ccccc1)C(C)CCC3 (stereo not drawn)	-18%
C=CCNC(=O)COc1ccc(N(C)S(=O)(=O)c2ccc(NC(C)=O)cc2)cc1	-13%

The closing four compounds of the section above come first, to join the parts.
Structure	VDR inhibitor
Cc1nn(CC(=O)N(C)C)c(=O)c2ccccc12	-10%
COc1ccc(Cl)cc1C(=O)NNC(=O)C1COc2ccccc2O1 (stereo not drawn)	-22%
COC(=O)CSc1nc2sc3c(c2c(=O)n1-c1ccccc1)C(C)CCC3 (stereo not drawn)	-18%
C=CCNC(=O)COc1ccc(N(C)S(=O)(=O)c2ccc(NC(C)=O)cc2)cc1	-13%
CCNC(=O)N(C)C[C@H]1N[C@@](C)(C(=O)OC)[C@H]2C(=O)N(Cc3ccccc3)C(=O)[C@@H]12	8%
COc1cc(C2C3=C(CCCC3=O)Nc3[nH]n(-c4ccccc4)c(=O)c32)cc(OC)c1OC (stereo not drawn)	-1%
CC(=O)OC/C=C(C)/C=C/C=C(C)/C=C/C1=C(C)CCCC1(C)C	40µM*!
CCNc1ccc(C(=O)OCC)cc1NC(=O)c1cccc(S(=O)(=O)N(C)c2ccccc2)c1	-17%
CC(C)(C)OC(=O)NCCCCCc1nnc(SCC(=O)Nc2cccc(Cl)c2)o1	-5%
Cc1ccc(SCc2cc(=O)[nH]c(/N=C(\N)Nc3cccc4ccccc34)n2)cc1	-14%
COc1ccc(N=C2SC(C(=O)N3CCN(c4ccccc4)CC3)CC(=O)N2C)cc1 (stereo not drawn)	-3%
Brc1ccc(C2=Nc3cccc4cccc(c34)N2)o1	-30%
C=CCC(O)[C@H](Cc1cnc2ccccc2c1)[C@H](/C=C/CCCC)c1ccccc1 (stereo partly drawn)	-6%
COC(=O)c1ccc(S(=O)(=O)N2CCCCCC2)n1C	-21%
COc1ccc(OC)c(Nc2nc(N)c([N+](=O)[O-])c(NC3CCCCC3)n2)c1	8%
CCOC(=O)c1cc2c(=O)n3ccccc3nc2n(CCCOC)c1=NC(=O)C(C)(C)Oc1ccc(Cl)cc1	-20%
Cc1cc(C[n+]2ncsc2N)c2ncccc2c1	-23%
Cc1ccc(NC(=O)Cn2ncn3c(cc4ccccc43)c2=O)c(C)c1	5%&-3%
CCOc1ccc(-c2c(=O)n(O)c3ccccc3[n+]2[O-])cc1	-6%
Cc1cc(C)c2c(n1)nn1c(NCCOCCO)cc(C)nc21	-14%
O=C(c1sc2ccccc2c1Cl)N1CCN(c2ncccn2)CC1	-8%
Cc1ccc(CC(=O)NCCN2CCOCC2)cc1	-4%
COCCNCCCCSc1ccc(Cl)cc1	-7%
CCC(=O)Nc1ccc(Cl)c(NC(=O)c2ccccc2OC)c1	6%
Cc1ccccc1-c1nnn(CC(=O)N2CCN(S(=O)(=O)c3ccc(Cl)cc3)CC2)n1	-4%
Cc1c(C(=O)Nc2ccccc2C(=O)N2CCCC2)cccc1[N+](=O)[O-]	8%
CCOC(=O)c1ccc(NC(=O)CCC(=O)N2Cc3ccccc3Oc3ncccc32)cc1	12%
O=C(Nc1ccc2nsnc2c1)c1ccc2c(c1)OCO2	-3%
CCCNC(=O)c1ccccc1C(=O)NCCC	8%
CCOc1ccccc1NC(=O)N1c2ccccc2Sc2ccccc21	-7%
O=c1c2oc3ccccc3c2ncn1Cc1ccccc1Cl	-17%
Cc1ccc(S(=O)(=O)Nc2ccc(C(=O)OCC(=O)N(CCC#N)c3ccccc3)cc2)cc1C	10%
COC(=O)N[C@H](c1ccccc1)C(C(C)=O)C(=O)OC (stereo partly drawn)	0%

This is a subset, so the mix of outcomes need not match the whole.
